Compound activity from PubChem.
Vaccinia mCherry = inhibitors of vaccinia virus infection (mCherry reporter signal); Vaccinia virus mCherry reporter infection, fluorescence; about a quarter of the inactives have no number; Potency, µM (doses to about 36.5 µM), for inactives: at the top dose activity change, negative = inhibition, usual class: inhibitors; 310,000 compounds, 0.63% hits; AID 720579; active = well fitted inhibition curve with a large enough effect; inconclusive = small, poorly fitted or top-dose-only effect; inactive = no such curve, though single readings can be large or run the other way; tested in A549 cells; also: nearly all actives have a fitted effect of over 35% in size; inactives centre near -10
VACV Venus inh = inhibitors of vaccinia virus (Venus reporter); Potency, µM (top dose mostly 36.5 µM), without a hit: at the top dose activity change, negative = inhibition, usual class: inhibitors; AID 720580; Vaccinia virus Venus reporter expression, fluorescence; 330,000 compounds, 0.46% hits; active means well fitted inhibition curve with a large enough effect; inconclusive means small, poorly fitted or top-dose-only effect; inactive means no such curve, though single readings can be large or run the other way; tested in A549 cells; also: nearly all actives have a fitted effect of over 30% in size; inactives centre near -10
The depositor's hits bear a star; & = joins results of further samples; [ ] = remark or other dose. % is scaled to controls: 0 for no effect and ±100 for the full control effect; potency is read from the fitted curve at half-maximal effect.

COC(=O)c1c(NC(=O)CSc2nc3nc(C)cc(C)n3n2)sc(C)c1C was read as Vaccinia mCherry inconclusive and VACV Venus inh -17%.
CCOc1ccc(CNC(=O)C2CCCN(S(=O)(=O)c3ccc4c(c3)CCCC(=O)N4)C2)cc1 (stereo not drawn) was read as Vaccinia mCherry -14% and VACV Venus inh -4%.
Cc1ccc(CNc2ccc(N3C(=O)CCCC3=O)cc2[N+](=O)[O-])cc1 was read as Vaccinia mCherry -8% and VACV Venus inh -17%.
`c1cncc(-c2nc(-c3ccc4c(c3)OCO4)cs2)c1` gave VACV Venus inh inconclusive.
CCOC(=O)c1cc(-c2ccc(C)cc2)n(CCC(=O)NCCCOC)c1C was read as Vaccinia mCherry -8% and VACV Venus inh -8%.
`CN(C)S(=O)(=O)N1CCC(n2nccc2NC(=O)CCc2ccccc2)CC1` gave Vaccinia mCherry -8% and VACV Venus inh -9%.
COc1ccc(NC(=O)c2oc3ccccc3c2NC(=O)COc2ccc(F)cc2)c(OC)c1 was read as Vaccinia mCherry 7% and VACV Venus inh 8%.
For O=C(c1cc(-c2ccccc2)on1)N1CCN(Cc2ccc3c(c2)OCO3)CC1 the results were Vaccinia mCherry inactive and VACV Venus inh -15%.
For CC(=O)c1ccc(NC(=O)CCCN2C(=O)C(c3ccccc3)Oc3cccnc32)cc1 (stereo not drawn) the results were Vaccinia mCherry 0%[7.34 µM] and VACV Venus inh -14%[7.34 µM].
N#Cc1cc(-c2ccccc2)nc(NN)n1 was read as Vaccinia mCherry inconclusive and VACV Venus inh inconclusive.
Screening Nc1nc(CN2CCN(c3cccc(Cl)c3)CC2)nc(N2CCCc3ccccc32)n1 returned VACV Venus inh -14%.
Screening CC(C)CC1C(=O)N(Cc2cn(CCC3OCCCO3)nn2)CCS(=O)(=O)N1Cc1ccc(-c2cccc(N(C)C)c2)cc1 (stereo not drawn) returned Vaccinia mCherry -4% and VACV Venus inh -9%.
COc1ccc(C)cc1S(=O)(=O)NCC(c1cccnc1)N1CCc2ccccc2C1 (stereo not drawn) was read as Vaccinia mCherry inconclusive and VACV Venus inh -17%.
For COC(=O)/C=C1\N/C(=N\c2nc(C)cc(C)n2)N(c2ccccc2)C1=O the results were Vaccinia mCherry -11% and VACV Venus inh -8%.
CCN(CC)S(=O)(=O)c1ccc(C(=O)OCC(=O)Nc2ccc(-c3nc4ccc(C)cc4s3)cc2)cc1 was read as Vaccinia mCherry -10% and VACV Venus inh -10%.
For C#CCOCCOCCOCCNc1nc(N2CCN(C(=O)C([C@@H](C)CC)n3cc(C(N)CO)nn3)CC2)nc(N2CCN(C(=O)C([C@@H](C)CC)n3cc(C(N)COC(=O)C(F)(F)F)nn3)CC2)n1 (stereo partly drawn) the results were Vaccinia mCherry -11% and VACV Venus inh 3%.
For COc1nc(NC2CCCCC2)nc(N2CCCCCC2)n1 the results were Vaccinia mCherry inconclusive and VACV Venus inh inconclusive.
Screening COC(=O)C[C@H]1c2cc(C(F)(F)F)ccc2S(=O)(=O)N1C1CCCCC1 returned Vaccinia mCherry -14% and VACV Venus inh -6%&-4%.
`CCOc1ccccc1CC1C(=O)Nc2ccc(Br)cc21` (stereo not drawn) gave Vaccinia mCherry -26% and VACV Venus inh -25%.
`Nc1c(C(=O)Nc2cccc(Cl)c2Cl)sc2nc(-c3cccnc3)ccc12` gave Vaccinia mCherry inactive and VACV Venus inh inconclusive.

Among those listed so far, these have a halogen.
COc1ccc(NC(=O)c2oc3ccccc3c2NC(=O)COc2ccc(F)cc2)c(OC)c1 was read as Vaccinia mCherry 7% and VACV Venus inh 8%.
Screening Nc1nc(CN2CCN(c3cccc(Cl)c3)CC2)nc(N2CCCc3ccccc32)n1 returned VACV Venus inh -14%.
For C#CCOCCOCCOCCNc1nc(N2CCN(C(=O)C([C@@H](C)CC)n3cc(C(N)CO)nn3)CC2)nc(N2CCN(C(=O)C([C@@H](C)CC)n3cc(C(N)COC(=O)C(F)(F)F)nn3)CC2)n1 (stereo partly drawn) the results were Vaccinia mCherry -11% and VACV Venus inh 3%.
Screening COC(=O)C[C@H]1c2cc(C(F)(F)F)ccc2S(=O)(=O)N1C1CCCCC1 returned Vaccinia mCherry -14% and VACV Venus inh -6%&-4%.
`CCOc1ccccc1CC1C(=O)Nc2ccc(Br)cc21` (stereo not drawn) gave Vaccinia mCherry -26% and VACV Venus inh -25%.
`Nc1c(C(=O)Nc2cccc(Cl)c2Cl)sc2nc(-c3cccnc3)ccc12` gave Vaccinia mCherry inactive and VACV Venus inh inconclusive.

Returning to the listing with the 3 entries that preceded the break.
Screening COC(=O)C[C@H]1c2cc(C(F)(F)F)ccc2S(=O)(=O)N1C1CCCCC1 returned Vaccinia mCherry -14% and VACV Venus inh -6%&-4%.
`CCOc1ccccc1CC1C(=O)Nc2ccc(Br)cc21` (stereo not drawn) gave Vaccinia mCherry -26% and VACV Venus inh -25%.
`Nc1c(C(=O)Nc2cccc(Cl)c2Cl)sc2nc(-c3cccnc3)ccc12` gave Vaccinia mCherry inactive and VACV Venus inh inconclusive.
For CC(=O)Nc1cccc(-c2cc3nc(NCc4cccnc4)n(C)c(=O)c3s2)c1 the results were Vaccinia mCherry 34%[activator] and VACV Venus inh 0%.
`CC(=NCCO)c1c(O)n(C)c(=O)n(C)c1=O` gave Vaccinia mCherry -14% and VACV Venus inh -7%.
`O=C(Nc1nc(-c2ccc(F)cc2)cs1)c1ccc(N2C(=O)CCC2=O)cc1` gave Vaccinia mCherry inactive and VACV Venus inh -29%.
For CCOc1ccc(CCNC(=O)Cn2c(-c3nonc3N)nc3ccccc32)cc1OCC the results were Vaccinia mCherry 6% and VACV Venus inh 5%.
Screening COCCCN1CN(S(=O)(=O)c2cccs2)c2nc3ccccc3nc21 returned Vaccinia mCherry -9% and VACV Venus inh 3%.
`COC(=O)c1sc(NC(=O)CSc2nnnn2C)nc1C` gave Vaccinia mCherry -6% and VACV Venus inh -11%.
COC(=O)C1C(=O)C=C(N2CCOCC2)CC1(C)C (stereo not drawn) was read as VACV Venus inh -18%.
`COc1ccc(NC(=S)NCCCCCC(=O)C[N+](=O)[O-])cc1` gave Vaccinia mCherry -4% and VACV Venus inh -2%.
Screening Cc1cccc(-c2noc(-c3ccc(NCC4CCCO4)c([N+](=O)[O-])c3)n2)c1 (stereo not drawn) returned Vaccinia mCherry inconclusive and VACV Venus inh inconclusive.
For Cc1ccc2c(CSc3nncs3)cc(=O)oc2c1 the results were Vaccinia mCherry -10% and VACV Venus inh -21%.
For Cc1c(Cl)cccc1NC(=O)CN1C(=O)C(C)N=C(c2ccccc2)c2ccccc21 (stereo not drawn) the results were Vaccinia mCherry -11% and VACV Venus inh -8%.
S=c1[nH]c(-c2cccs2)cn1-c1ccccc1 was read as Vaccinia mCherry inconclusive and VACV Venus inh 1%.
For CC1(C(=O)Nc2ccc3c(c2)OCCO3)CCN1Cc1ccccc1OC(F)F (stereo not drawn) the results were Vaccinia mCherry inconclusive and VACV Venus inh -10%.
`O=C(N/N=C/c1c[nH]c2ccc(Br)cc12)c1ccccn1` gave Vaccinia mCherry -10% and VACV Venus inh -8%.
Screening Cc1noc(C)c1COc1ccccc1C(=O)N1CCN(S(=O)(=O)c2ccccc2C(F)(F)F)CC1 returned Vaccinia mCherry inactive and VACV Venus inh -11%.
For O=C(Cn1cnc2c(cnn2-c2ccccc2)c1=O)c1ccc(Cl)cc1 the results were Vaccinia mCherry -9% and VACV Venus inh -10%.
CC1CCCN(C(=O)Cn2c(=O)oc3cc(S(=O)(=O)N4CCCCC4C)ccc32)C1 (stereo not drawn) was read as Vaccinia mCherry 8% and VACV Venus inh -2%.
For CCCCNc1c(-c2cccc(SC3CCCCC3)c2)nc2ccc(Cl)cn12 the results were Vaccinia mCherry -7%&-7% and VACV Venus inh -8%&1%.
`COC(=O)C1C(=O)c2c([nH]c(C(=O)OC3CCCC3)c2C)CC1C` (stereo not drawn) gave VACV Venus inh -36%.
O=C(c1ccc(C(=O)N2CCCc3ccccc32)nc1)N1CCCc2ccccc21 was read as Vaccinia mCherry -14% and VACV Venus inh -14%.
Screening CC(=O)c1cccc(NC(=O)CN2C(=O)CCc3cc(S(=O)(=O)N4CCCCC4)ccc32)c1 returned Vaccinia mCherry -5% and VACV Venus inh -1%.
`Nc1nonc1C(=O)N/N=C/c1cc2c(cc1[N+](=O)[O-])OCO2` gave Vaccinia mCherry -13% and VACV Venus inh -7%.
COC(=O)c1ccc(NC(=O)CSc2ncc3c(n2)-c2cc(Cl)ccc2N(Cc2ccccc2)S3(=O)=O)cc1 was read as Vaccinia mCherry inactive and VACV Venus inh -16%.
For CC1CCN(C(=O)COC(=O)c2ccc(N3CCCC3=O)cc2)CC1 the results were Vaccinia mCherry -14% and VACV Venus inh -2%.
CN(CCC#N)C(=O)CC1(Cc2ccccc2)CCOC(C)(C)C1 (stereo not drawn) was read as Vaccinia mCherry -7% and VACV Venus inh -4%.
Screening Cc1c(Cl)cccc1NC(=S)NCCc1ccc(F)cc1 returned Vaccinia mCherry -18% and VACV Venus inh -8%.
For Cc1n[nH]c(=O)c2c(NC(=O)CSc3nncs3)oc(C)c12 the results were Vaccinia mCherry -11% and VACV Venus inh -13%.
For C[C@@H]1COC(=O)[C@@H](CC(=O)OC(C)(C)C)C/C=C\C[C@H](CC(=O)NCCO)C(=O)N1 the results were Vaccinia mCherry inactive and VACV Venus inh 0%.
`CC(=O)Nc1ccc2c(c1)N(C(=O)CN(C)C)c1ccccc1CC2` gave Vaccinia mCherry -3% and VACV Venus inh -5%.
O=C(NCC1CCCO1)C(c1ccc(F)cc1)N(Cc1ccc(F)cc1)C(=O)Cn1nnc(-c2cccs2)n1 (stereo not drawn) was read as Vaccinia mCherry -1% and VACV Venus inh -19%.
For CCCc1noc2c1C(c1ccoc1)C(C#N)=C(N)N2 (stereo not drawn) the results were VACV Venus inh -11%.
Screening CC(=O)c1cccc(S(=O)(=O)N2CCN(c3nc4cc(C)cc(C)c4cc3C#N)CC2)c1 returned Vaccinia mCherry inconclusive and VACV Venus inh -16%.
Screening COc1ccc(NC(=O)CCOc2ccccc2F)cc1S(=O)(=O)N1CCCCC1 returned Vaccinia mCherry inactive and VACV Venus inh -1%.
`CC(C)COc1cccc(C(=O)N(C)CC(=O)Nc2cccc3ccccc23)c1` gave Vaccinia mCherry -24% and VACV Venus inh -16%.
`COc1ccccc1CCNC(=O)C(=O)NCC1OCCN1S(=O)(=O)c1ccccc1` (stereo not drawn) gave Vaccinia mCherry -11% and VACV Venus inh -21%.
Screening O=S(=O)(NCC(c1ccco1)N1CCc2ccccc21)c1ccccc1 (stereo not drawn) returned Vaccinia mCherry -21% and VACV Venus inh -12%.
For CCCS(=O)(=O)c1ncc(Cl)c(C(=O)Nc2c(C(=O)Nc3ccccc3)oc3ccccc23)n1 the results were Vaccinia mCherry -13% and VACV Venus inh -11%.
NNC(=O)C(Cc1c[nH]c2ccccc12)NC(=O)c1ccccc1 (stereo not drawn) was read as Vaccinia mCherry inactive and VACV Venus inh -3%.
Screening COc1ccc(CCn2nnnc2CN2CCN(C(=O)c3ccco3)CC2)cc1OC returned Vaccinia mCherry -9% and VACV Venus inh 2%.
Screening CCOC(=O)C1CCCN(S(=O)(=O)c2cc3[nH]c(=O)c(=O)[nH]c3cc2C)C1 (stereo not drawn) returned Vaccinia mCherry -7% and VACV Venus inh 2%.
`O=C(C1CCCN(Cc2ccc3c(c2)OCO3)C1)N1CCCC1` (stereo not drawn) gave VACV Venus inh -11%.
Screening COCCN(CC1CCCN(C2Cc3ccccc3C2)C1)C(=O)c1cccc(C)c1 (stereo not drawn) returned Vaccinia mCherry -5% and VACV Venus inh -3%.
`CCC[C@@H]1CCCO[C@@](C(=O)NCc2ccccn2)(C(F)(F)F)C1` gave Vaccinia mCherry inactive and VACV Venus inh -25%.
Screening COc1ccc(C(CC(=O)Nc2nccs2)n2cccc2)cc1 (stereo not drawn) returned Vaccinia mCherry 0% and VACV Venus inh -4%.
`CCCNC(=O)C1(C)CCCN(Cc2ccc(-c3ccccc3)cc2)C1` (stereo not drawn) gave Vaccinia mCherry 33%[activator] and VACV Venus inh -10%.
Screening CCc1nnc(NC(=O)CSc2nccn2Cc2ccc(Cl)cc2)s1 returned Vaccinia mCherry -6% and VACV Venus inh -3%.
`O=C(NC(O)C(=O)c1cccs1)c1cccnc1` (stereo not drawn) gave VACV Venus inh -17%.
`CCN1/C(=C\C=C(C(C)=O)C(C)=O)Sc2ccccc21` gave Vaccinia mCherry -22% and VACV Venus inh -1%.
For Cc1ccc(Cc2cnc(NC(=O)CN3CCOCC3)s2)cc1Cl the results were Vaccinia mCherry inconclusive and VACV Venus inh -25%.
`CC1(OC(=O)c2ccc(Cl)nc2)C(=O)C=C2C=C3CCCN3C=C2C1=O` (stereo not drawn) gave Vaccinia mCherry -9% and VACV Venus inh -22%.
For Cc1nc(CS(=O)c2ccc(Cl)cc2)cc(NCc2ccc(Cl)cc2Cl)n1 (stereo not drawn) the results were VACV Venus inh inconclusive.
Screening O=C(c1cccnc1)N1CCN(S(=O)(=O)c2cccs2)CC1 returned Vaccinia mCherry inactive and VACV Venus inh -3%.
CC(OC(=O)c1ccco1)C(=O)Nc1ccc(Cl)cn1 (stereo not drawn) was read as Vaccinia mCherry -3% and VACV Venus inh -8%.
For Cc1cc(C)c(O)c(-c2cc(C(=O)Nc3cccnc3)[nH]n2)c1 the results were Vaccinia mCherry inconclusive and VACV Venus inh -22%.
For Cc1cc(NC(=O)CSc2nc(C(C)C)nc3sc(C)c(C)c23)no1 the results were Vaccinia mCherry -13% and VACV Venus inh -8%.
For Brc1cccc(-c2nnc3sc(CNCc4ccco4)cn23)c1 the results were Vaccinia mCherry -7% and VACV Venus inh -10%.
Screening COc1cccc(NC(=O)CC2NCCNC2=O)c1 (stereo not drawn) returned Vaccinia mCherry -4% and VACV Venus inh -3%.
